MbtI inh = inhibitors of Mycobacterium tuberculosis siderophore enzyme MbtI; P9WFX0; 0.89% of 100,000 active; AID 493033; purified MbtI enzyme, fluorescence intensity read-out; inhibition, %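 (about 17 µg/mL by stock and volumes)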;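 active means above 50% in both replicates, above 80% if mildly self-fluorescent; inactive means the rest, strongly fluorescent compounds included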;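 further: 0% = mean of negative and 100% = mean of positive controls; one replicate is shown; some compounds called inactive have numbers as strong as hits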
Mtb MenB inh = blocks the Mycobacterium tuberculosis MenB enzyme | P9WNP5 | MenB enzyme assay, absorbance read-out; some hits fall short of the stated cut | inhibition, %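 (about 12 µg/mL by stock and volumes)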 | 0.43% of 100,000 active;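 active means mean of two replicates above 30%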;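 further: 0% = no compound and 100% = wells with inactive enzyme; the first replicate is given; strong numbers were not always called active; inactives centre near -10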
Target sequence (P9WNP5 whole entry, looked up): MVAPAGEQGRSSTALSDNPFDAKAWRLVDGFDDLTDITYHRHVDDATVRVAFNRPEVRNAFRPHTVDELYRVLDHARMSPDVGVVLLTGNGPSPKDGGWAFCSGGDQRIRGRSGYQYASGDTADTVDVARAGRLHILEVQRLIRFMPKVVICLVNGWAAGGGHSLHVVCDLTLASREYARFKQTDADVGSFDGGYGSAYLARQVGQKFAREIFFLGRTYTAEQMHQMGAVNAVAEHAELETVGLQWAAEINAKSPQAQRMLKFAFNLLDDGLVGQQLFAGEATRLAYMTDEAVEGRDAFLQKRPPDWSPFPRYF
Polio RdRp inh = inhibitors of poliovirus RNA polymerase binding and polymerization; P03300; % elongation, % (compound at 16.7 µg/mL); poliovirus polymerase elongation, fluorescence polarization; hits give low values; 0.66% of 150,000 active; AID 588519; in the data active means % elongation below about 90%; further: some results filed as inactive read as strong as hits
Target sequence (P03300 1749-2209 limits assumed): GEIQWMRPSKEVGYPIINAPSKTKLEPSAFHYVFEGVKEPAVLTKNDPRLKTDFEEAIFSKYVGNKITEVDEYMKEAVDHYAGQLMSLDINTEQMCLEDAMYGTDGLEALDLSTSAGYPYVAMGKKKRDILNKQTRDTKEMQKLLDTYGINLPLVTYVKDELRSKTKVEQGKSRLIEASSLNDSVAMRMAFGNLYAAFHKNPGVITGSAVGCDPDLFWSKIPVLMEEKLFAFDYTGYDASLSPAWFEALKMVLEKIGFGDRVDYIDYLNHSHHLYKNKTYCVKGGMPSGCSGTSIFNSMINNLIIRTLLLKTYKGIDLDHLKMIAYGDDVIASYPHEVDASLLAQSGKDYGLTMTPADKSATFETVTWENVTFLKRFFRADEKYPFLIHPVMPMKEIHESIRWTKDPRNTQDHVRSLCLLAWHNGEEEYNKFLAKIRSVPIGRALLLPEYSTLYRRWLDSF
Polio RdRp inh intensity = also measured in Polio RdRp inh; calls as there; % elongation; measured here: total intensity read-out; formula for this scale not given here;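 total fluorescence in place of polarization; lower means less elongation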
An asterisk follows results filed as active; nt = no result given.

SMILES	MbtI inh	Mtb MenB inh	Polio RdRp inh	Polio RdRp inh intensity
O=C(O)CCCC(=O)n1cnc2ccccc21	-9.3	-6.8	103.0	100.0
O=C1CN(C(=O)CCN2CCOCC2)C(c2ccccc2)c2cc(Br)ccc2N1 (configuration not stated)	-5.7	-12.4	106.0	101.0
O=C(CC1NC(=O)NC1=O)Nc1ccccc1 (configuration not stated)	-8.4	-24.8	104.0	102.0
COc1cc2c(C#N)c(N3CCN(S(=O)(=O)c4ccccc4C(F)(F)F)CC3)nc(N)c2c(N)n1	26.5	14.3	104.0	110.0
N#Cc1c(NC(=O)CC(c2ccccc2)c2ccccc2)oc(-c2ccco2)c1-c1ccco1	-124.8	-17.3	109.0	124.0
COc1cc2c(cc1OC)C1=C(C#N)CN(CC(=O)O)CN1CC2	-63.4	-14.1	102.0	106.0
COc1cccc(C(=O)NC(C)C2CC3CCC2C3)c1OC (configuration not stated)	3.1	nt	102.0	96.0
CC(C)CN(CC(C)C)c1nnc(NC(=O)c2cc(-c3ccc(Br)cc3)on2)s1	-4.8	-14.2	103.0	104.0
CCOC(=O)CSc1nc(-c2ccccc2)ns1	52.0*	-2.1	93.0	87.0
CC1(C)CC(=O)C2=C(C1)NC1=C(C(=O)CC(C)(C)C1)C2c1ccc2c(c1)OCO2	-124.5	-92.4	100.0	102.0
Cc1csc2nc(CN3CCCC3c3cccs3)cc(=O)n12 (configuration not stated)	-17.5	-13.1	102.0	106.0
CNc1ccc(Br)cc1-c1n[nH]c(=S)[nH]c1=O	-2.4	-38.3	103.0	102.0
CN1CCN(NC(=O)COc2ccc3c(c2)CCC3)CC1	0.0	-14.2	101.0	101.0
COc1ccccc1NC(=O)c1cccc(S(=O)(=O)N2CCCC2)c1	-0.2	1.2	103.0	103.0
O=C1NN(c2ccccc2)C(=O)C2C3C=CC(C4CC34)C12 (configuration not stated)	-9.2	3.1	102.0	100.0
CCCCNc1nc(-c2cccc(OC)c2)no1	-15.6	-9.6	101.0	103.0
CCN(CC)c1ccc(C2N(C(=O)N3CCOCC3)CCN2S(=O)(=O)c2ccc(C)cc2)cc1 (configuration not stated)	-13.9	-14.2	101.0	101.0
COc1ccc(NC(=O)COC(=O)Cn2cnc3ccccc3c2=O)c(OC)c1	9.1	-18.7	107.0	113.0
C#C[C@]1(O)CCC2C3CCC4=CC(=O)CC[C@]4(C)C3CC[C@@]21C (some centres not stated)	-5.8	-11.7	99.0	101.0
O=C(NN1C(=O)C2C3C=CC(C3)C2C1=O)c1ccncc1 (configuration not stated)	-3.6	5.0	102.0	107.0
CN(Cc1nc(-c2ccccc2)no1)C(=O)N1CCOCC1	1.2	-19.0	102.0	101.0
Cc1ccc(C(=O)CC(C(=O)c2ccc(C(F)(F)F)cc2)c2cccs2)cc1 (configuration not stated)	-5.0	-43.3	102.0	107.0
COc1ccc(OC/C(N)=N/OC(=O)c2cc(C)on2)cc1	-1.5	13.0	100.0	102.0
Cc1cc(S(=O)(=O)N2CCCCC2)c(C)c(C)c1C	-12.8	-8.1	104.0	103.0

Reformatted as comma-separated lines: part of the list above.
mol,MbtI inh,Mtb MenB inh,Polio RdRp inh,Polio RdRp inh intensity
O=C(CC1NC(=O)NC1=O)Nc1ccccc1 (configuration not stated),-8.4,-24.8,104.0,102.0
COc1cc2c(C#N)c(N3CCN(S(=O)(=O)c4ccccc4C(F)(F)F)CC3)nc(N)c2c(N)n1,26.5,14.3,104.0,110.0
N#Cc1c(NC(=O)CC(c2ccccc2)c2ccccc2)oc(-c2ccco2)c1-c1ccco1,-124.8,-17.3,109.0,124.0
COc1cc2c(cc1OC)C1=C(C#N)CN(CC(=O)O)CN1CC2,-63.4,-14.1,102.0,106.0
COc1cccc(C(=O)NC(C)C2CC3CCC2C3)c1OC (configuration not stated),3.1,nt,102.0,96.0
CC(C)CN(CC(C)C)c1nnc(NC(=O)c2cc(-c3ccc(Br)cc3)on2)s1,-4.8,-14.2,103.0,104.0
CCOC(=O)CSc1nc(-c2ccccc2)ns1,52.0*,-2.1,93.0,87.0

Additional structures follow:
SMILES	MbtI inh	Mtb MenB inh	Polio RdRp inh	Polio RdRp inh intensity
CCC(C)(C)NCC(=O)Nc1ccc(OC(F)(F)F)cc1	-15.9	4.7	106.0	114.0
O=C(Nc1ccc(OCc2ccccc2)cc1)OCC1CN(Cc2ccccc2)CCO1 (configuration not stated)	-5.3	-7.6	104.0	103.0
CCN1CCN(C(=O)c2ccccc2C(=O)Nc2ccc(S(=O)(=O)N3C(C)CCCC3C)cc2)CC1 (configuration not stated)	-2.3	-30.0	100.0	101.0
CN1C(=O)N(C)C2NC(SCC(=O)O)=NC21 (configuration not stated)	-3.9	-33.4	100.0	97.0
CN1C(=O)C(O)(c2nnc(-c3ccccc3)o2)c2ccccc21 (configuration not stated)	5.3	2.2	102.0	100.0
CN(Cc1ccccc1)C(=O)CN1C(=O)c2ccccc2C1=O	-8.3	-16.5	101.0	103.0
Nc1ncc(Br)cc1S(=O)(=O)NCCC(=O)Nc1ccc(Cl)cc1	-11.8	-17.6	98.0	96.0
CN1C(=O)C[C@@H](C(=O)O)[C@@H]1c1ccccc1Cl	nt	-3.6	102.0	103.0
Cc1c(C)c(C)c(C(=O)/C=N/N)c(C)c1C	-7.3	-2.5	101.0	99.0
COC(=O)c1sc2nc3n(c(=O)c2c1C)N=C(c1cccc(OC)c1)CS3	2.0	-10.9	103.0	103.0
CCC1CCC(N2CCN(c3ccccc3F)CC2)CC1 (configuration not stated)	-9.1	-0.6	100.0	102.0
NC(=O)C1CCN(C(=O)CCCn2c(=S)[nH]c3ccccc3c2=O)CC1	5.0	-7.3	102.0	103.0
N=C1S/C(=C\c2ccccc2)C(=O)N1c1ccc(F)cc1	2.5	-9.4	100.0	101.0
CC(C)CNCC(=O)Nc1cc(C(F)(F)F)cc(C(F)(F)F)c1	-9.7	-34.7	106.0	109.0
CC(=O)N[C@H]1[C@H](Oc2ccc(Cl)cc2Cl)O[C@H](CO)[C@@H](O)[C@@H]1O	nt	-11.3	106.0	109.0
N#CCC(=O)N1N=CCC1(O)C(F)(F)F (configuration not stated)	15.2	-33.1	104.0	111.0
CCn1nnc2c(NCCc3ccc(S(N)(=O)=O)cc3)ncnc21	2.7	-11.6	100.0	112.0
Cc1ccc(-c2ccc(=O)n(CCC(=O)NCCN3CCN(c4cccc(Cl)c4)CC3)n2)cc1	5.2	-22.2	104.0	108.0
CCOC(=O)Cn1c2c(c(=N)c3c1CCC3)CCC2	2.5	-3.3	100.0	102.0
COc1ccc(NC(=O)N2CCC(n3cnc4ccccc43)CC2)cc1	-11.0	-58.4	104.0	103.0
COc1ccc(-c2nsc3c(N4CCN(S(=O)(=O)c5cccc(F)c5)CC4)ncnc23)cc1	1.4	-45.1	105.0	101.0
Cc1ccccc1NC(=O)Nc1ccccc1N1CCCCC1	-6.9	-5.1	104.0	102.0
Cc1c(NC(=O)C(Cc2ccccc2)N2C(=O)C3C4C=CC(C4)C3C2=O)c(=O)n(-c2ccccc2)n1C (configuration not stated)	-6.8	-6.1	105.0	103.0
CCC(C)NC(=O)Cc1n[nH]c(=O)c2ccccc12 (configuration not stated)	0.9	-5.1	111.0	107.0
CC1=NN(C(=O)c2ccccc2)C(O)(C(F)(F)OC(F)(F)F)C1 (configuration not stated)	-6.1	-48.2	100.0	104.0
CS(=O)(=NC(=O)Nc1ccccc1)c1ccsc1 (configuration not stated)	-13.5	12.3	99.0	96.0
COc1cccc(C(=O)Nc2ccc(-n3nncc3C(C)(C)C)cc2)c1	-0.1	-21.8	104.0	106.0
CCn1nnnc1NCc1cccc(Cl)c1	-11.6	-30.7	101.0	103.0
Cn1cnnc1SCc1nc2ccccc2[nH]1	-1.9	-33.5	103.0	102.0
Cc1cccc(N2C(=O)c3ccc(Oc4ccc5c(c4)C(=O)N(c4cccc(C)n4)C5=O)cc3C2=O)n1	-8.9	-6.3	99.0	102.0
Cc1cc(C)c(NC(=O)CCn2nnc3ccccc32)c(C)c1	-7.3	-44.0	105.0	100.0
CC1CC(=O)N(CC(=O)NCc2ccc(F)cc2)c2ccccc2S1(=O)=O (configuration not stated)	4.8	-15.4	101.0	101.0
COC(=O)CSC(C)c1nc2ccccc2c(=O)[nH]1 (configuration not stated)	11.8	-18.5	108.0	115.0
NNC(=O)CCc1cccc(S(=O)(=O)N2CCOCC2)c1	-3.2	5.9	102.0	99.0
Cc1cc2c(=O)oc(-c3cccc4ccccc34)nc2s1	-8.2	nt	101.0	104.0
COc1ccc(S(=O)(=O)n2c(=O)cnc3ccccc32)cc1	-6.6	-28.2	101.0	105.0

Full records as entered above.
Profile of `O=C(O)CCCC(=O)n1cnc2ccccc21` : MbtI inh: -9.3; Mtb MenB inh: -6.8; Polio RdRp inh: 103.0; Polio RdRp inh intensity: 100.0
Profile of `O=C1CN(C(=O)CCN2CCOCC2)C(c2ccccc2)c2cc(Br)ccc2N1` (configuration not stated) : MbtI inh: -5.7; Mtb MenB inh: -12.4; Polio RdRp inh: 106.0; Polio RdRp inh intensity: 101.0

(further entries)
SMILES	MbtI inh	Mtb MenB inh	Polio RdRp inh	Polio RdRp inh intensity
CC(C)c1ccc(-c2noc(C3CCCN(S(C)(=O)=O)C3)n2)cc1 (configuration not stated)	-2.5	29.2*	102.0	100.0
O=C1Cn2c(nc3ccccc3c2=O)CN1Cc1ccc2c(c1)OCO2	1.9	3.8	102.0	94.0
COCCn1c(SCC(=O)N2CCNC2=O)nc2ccccc21	-6.0	-8.4	102.0	100.0
COc1cc2c(cc1OC)C(C)N(CCC(N)=O)CC2 (configuration not stated)	-5.1	-8.1	102.0	105.0
CC1CCN(S(=O)(=O)c2ccc(C(=O)Nc3c(C(N)=O)oc4ccccc34)cc2)CC1	1.1	-47.9	106.0	101.0
N#CCCn1cc(C(=O)n2nnc3ccccc32)c(-c2ccccc2)n1	-0.8	0.8	101.0	101.0
COc1ccc(C)cc1NC(C)C(=O)NC(=O)NC1CCCCC1 (configuration not stated)	-3.9	-1.1	104.0	107.0
CC1Cc2ccccc2N1C(=O)COc1ncnc2c1cnn2-c1ccccc1 (configuration not stated)	-5.8	6.7	97.0	100.0
CCOC(=O)N1CCN(CN2C(=O)NC(c3ccccc3)(c3ccccc3)C2=O)CC1	-5.2	10.5	102.0	106.0
CC(C)(C)C(=O)Nc1nc(-c2ccc(Cl)s2)cs1	-1.5	nt	100.0	96.0
O=C(CCn1c(=O)c2cccn2c2cccnc21)NCCCc1ccccc1	-5.0	4.1	100.0	102.0
CC(C)c1ccc(NC(=O)CSC(=O)c2ccccc2)cc1	19.6	nt	100.0	104.0
CSc1nc(-c2ccccc2)nc2c1Cc1c(CO)cnc(C)c1O2	-10.8	-18.6	104.0	105.0
C=C1C(C(=O)Nc2ccc(N(C)C)cc2)C1C(=O)Nc1ccc(N(C)C)cc1 (configuration not stated)	-4.1	-24.0	103.0	102.0
O=C(NC1CCS(=O)(=O)C1)c1cc(-c2ccccc2)nc2ccccc12 (configuration not stated)	17.5	nt	102.0	101.0
CC1=C(C(=O)OC2CCCCCCC2)C(c2ccc(Cl)c(Cl)c2)NC(=O)N1 (configuration not stated)	nt	0.8	107.0	110.0
Cc1oc2c(F)c(F)c(F)c(F)c2c1-c1noc(C(C)(C)C)n1	3.5	3.4	105.0	106.0
CC1Cc2cc(/C=C3\N=C(c4ccccc4F)OC3=O)ccc2O1 (configuration not stated)	7.0	-22.3	93.0	112.0
Cc1ccc(S(=O)(=O)NC(C(=O)O)C(C)C)cc1C (configuration not stated)	-3.9	11.4	102.0	112.0
COc1ccc(CCNC(=O)C2CCN(S(=O)(=O)N3CCCCC3)CC2)cc1OC	-10.0	-8.8	104.0	103.0
CNC(=O)/C(C#N)=C\c1ccc(Sc2ccccc2)o1	11.9	-152.7	100.0	100.0
CC1=C(C(=O)OC2CCCCCCC2)C(c2ccccc2C(F)(F)F)CC(=O)N1 (configuration not stated)	-12.9	-19.8	104.0	108.0
CCOC(=O)c1cc(S(=O)(=O)NC(CC)c2cccs2)cn1C (configuration not stated)	-29.4	-14.3	102.0	104.0
COc1ccc(S(=O)(=O)N(CC(N)=O)Cc2ccccc2)cc1OC	-7.4	6.4	100.0	101.0
N#Cc1c(N2CCN(C(=S)NCc3ccccc3)CC2)nc(-c2ccco2)c2c1CCCC2	47.5	-10.4	102.0	104.0
